VCAM-1 up: boosters of cytokine-driven VCAM-1 levels – cell-based, plate reader, pooled HUVEC, TNFa stimulus (AID 455); 0.2% of 10,000 active; HUVEC TNFa-induced VCAM-1 immunofluorescence, plate reader; numbers were filed only for top-ranked candidate wells; augmentation, % at 5 µM;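 active = a compound raising TNF-alpha-driven VCAM-1 surface staining, with its hit status upheld on visual or statistical review; inactive = the rest, including hits rejected on review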;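 note: 0% = TNFa with vehicle and 100% = strongest image-checked hit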
Proteasome disasm: blocks ATP-dependent breakdown of the yeast 26S proteasome; AID 751; 0.2% of 24,000 active; inhibition of disassembly, % (no concentration beside the values); anti-FLAG beads, GFP-proteasome disassembly, flow cytometry;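 active = above 40%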;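 note: plate controls were ATP control with full disassembly for no effect and ATP-gamma-S intact proteasomes for full effect; higher percent means more bead fluorescence retained so stronger block of disassembly; stock transfer was 100 nL into about 10 µL; wells with too few beads may also be inconclusive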
* = called active by the depositor; i = inactive; · = no result given. These rows are one share of the data (hit frequency here may not be typical).

Screens in order – VCAM-1 up | Proteasome disasm
> CN1CCN(CCCNC(=O)C2CCN(c3nnc(-n4cccc4)s3)CC2)CC1
 : · | -0.1
> CN(C)CCNC(=O)c1ccc2c(c1)N(Cc1ccc(F)cc1)CCS2
 : · | 0.6
> COc1ccc2cc3cc(C(=O)Nc4ccc5c(c4)OCCO5)oc3nc2c1
 : · | 0.4
> COC(=O)C1=C(C)NC(C)=C(C(=O)OC)C1c1ccccc1[N+](=O)[O-]
 : i | 1.5
> COc1ccccc1CNC(=O)CN1CCN(Cc2ccc(Cl)cc2)C1=O
 : · | 3.0
> CC(=O)NCCn1c(SCC#N)nc2ccccc2c1=O
 : · | -0.1
> COC(=O)c1c(-c2cccc(OC)c2)csc1N
 : · | -2.0
> O=C1CC(c2cc3c(cc2Br)OCO3)C2=C(CCCC2=O)N1 (stereo not given)
 : · | -2.8
> Cn1c(NC(=O)c2cccc(Cn3cc(Cl)cn3)c2)nc2ccccc21
 : i | -0.2
> CC(=O)c1c(C)c[nH]c1C
 : · | -0.5
> COC(=O)Cn1nc(-c2ccccc2)c2ccccc2c1=O
 : · | 1.0
> CSc1nc(N)nc(SCC(=O)c2ccc(C)cc2)c1C#N
 : · | 0.6
> N#CC1=C(N)N(c2ccccc2)C(c2ccccc2)C1(C#N)C#N (stereo not given)
 : i | 0.4
> COC(=O)c1ccc(CSc2nnc(CNC(=O)c3cccs3)o2)o1
 : · | -0.6
> COCC(C)NC(=O)NC(=O)c1ccc(Cl)cc1 (stereo not given)
 : i | -2.0
> CN1CCN(CCCNC(=O)Cn2nc(-c3ccccc3)ccc2=O)CC1
 : · | 0.3
> CC(C)C(=O)NCCn1ccc2ccccc21
 : · | -0.4
> O=C(C1CCN(S(=O)(=O)N2CCOCC2)CC1)N1CCN(c2ccccc2)CC1
 : · | 0.1
> O=C(NCCCN1CCCC1)C1CCC(=O)N1C1CCCCC1 (stereo not given)
 : · | -1.7
> CCCS(=O)(=O)N1CCCC(C(=O)NCCCN(C)c2ccccc2)C1 (stereo not given)
 : · | -0.5

Screens in order – VCAM-1 up | Proteasome disasm
> O=C(c1c(F)cccc1F)N1CCN(c2ccccc2F)CC1
 : · | 0.1
> CCCN(CCC)S(=O)(=O)c1ccc2c(c1)CCCN2C(C)=O
 : · | -0.7
> Cc1nc2sc(C(c3ccc(Cl)cc3)N3CCOCC3)c(O)n2n1 (stereo not given)
 : · | 0.1
> O=C(c1cccnc1)N1CCN(Cc2ccc3c(c2)OCO3)CC1
 : i | -0.7
> C=CCNC(=O)c1sc(=S)n(-c2ccc(C(=O)OCC)cc2)c1N
 : · | -2.2
> CCCc1cc(=O)n2[nH]cnc2n1
 : i | -2.4
> CCOc1ccc(Oc2nc(Nc3ccc(C)cc3)nc(N(C)C)n2)nn1
 : i | -0.1
> Cc1ccc(NC(=O)CS(=O)(=O)c2c[nH]c3ccccc23)c(C)c1
 : · | 0.6
> CC(Sc1nnc(N)s1)c1ccccc1Cl (stereo not given)
 : · | -1.0
> CC(/C=N/O)Cc1ccc2c(c1)OCO2 (stereo not given)
 : · | -2.7
> CCC(C)NC(=O)c1c(C)cc(=O)oc1C (stereo not given)
 : · | -0.3
> Cc1cccn2c(=O)c3cc(C#N)c(=NC(=O)c4ccncc4)n(Cc4ccco4)c3nc12
 : i | -1.4
> Cc1cc(Cl)ccc1OCC(=O)Nn1c(C)ccc1C
 : i | 1.8
> CCn1nc(C(=O)OCC(=O)N2CCc3ccccc32)c2ccccc2c1=O
 : i | 0.8
> COc1ccccc1OC(C)C(=O)O (stereo not given)
 : · | -2.1
> CN(C)S(=O)(=O)c1ccc(C(=O)N2CCC(c3nc4ccccc4o3)CC2)cc1
 : i | 12
> CCC(=O)N1CCc2cc(S(=O)(=O)N3CCc4ccccc43)ccc21
 : · | -1.2
> CC(=O)N1CCN(c2ccc(S(=O)(=O)N3CCCCC3)cn2)CC1
 : i | 1.0
> COc1ccccc1CNC(=O)C1CCN(S(=O)(=O)c2c(C)noc2C)CC1
 : · | 0.3
> Cc1ccc(Cl)cc1N1CCN(C(=O)C2CCN(S(=O)(=O)c3c(C)nn(C)c3C)CC2)CC1
 : · | -0.4

Screens in order – VCAM-1 up | Proteasome disasm
> COc1cc2c(C(=O)N3CCN(C4CCCCC4)CC3)cn(CC(C)C)c(=O)c2cc1OC
 : · | 0.8
> CCOC(=O)/C=C(\C)Sc1cc(=O)oc2ccccc12
 : i | -0.3
> CCOc1ccc(CNc2ccc3c(c2)ncn3C)cc1
 : i | 0.9
> Cc1ccc(C)n1NC(=O)c1ccco1
 : i | -0.4
> Cc1ccc2c(C)[nH]c(=O)cc2c1
 : · | -1.4
> OCCNc1nc2ccc(Cl)cc2[nH]1
 : i | -0.8
> O=C(Cc1c[nH]c2ccccc12)N1CCc2ccccc21
 : i | 4.3
> Cc1cc(C)c(Cn2c(=O)n(CCCC(=O)NCc3ccco3)c(=O)c3ccccc32)c(C)c1
 : i | 0.0
> COC(=O)c1cn(NC(=O)c2ccc3c(c2)OCO3)c(=O)c2ccccc12
 : · | -1.8
> CN(C(=O)c1coc(=O)c2ccccc12)c1ccc(F)cc1
 : · | 0.0
> O=C(O)CC(c1ccccc1)n1cccc1 (stereo not given)
 : · | -1.4
> Cc1cccc(OCC(=O)N2CCC(N3CCCCCC3)CC2)c1
 : i | 3.0
> CN(CCCNC(=O)C1CCCN(S(=O)(=O)c2cnc[nH]2)C1)c1ccccc1 (stereo not given)
 : · | 0.1
> COCCNc1ncnc2nc[nH]c12
 : · | 0.7
> C=C(C)C1Cc2nc(N)nc(C)c2C1 (stereo not given)
 : · | 0.7
> COc1ccc(OC)c(C(=O)COC(=O)c2cc(C)oc2C)c1
 : i | 3.1
> O=C(CSc1ncc(-c2ccc(F)cc2)[nH]1)N1CCCCC1
 : i | 1.5
> CCN(CC)CCCN(Cc1cc2cc(OC)ccc2[nH]c1=O)C(=O)Nc1ccccc1
 : i | 1.2
> CCN1CCN(c2ncc(C(=O)Nc3c(F)cc(F)cc3Br)c3ccccc23)CC1
 : · | -2.6
> CCN(CCCNC(=O)COc1cc(=O)n(C)c2ccccc12)c1ccccc1
 : · | 0.6

Screens in order – VCAM-1 up | Proteasome disasm
> CCN(c1ccccc1)S(=O)(=O)c1ccc(C(=O)Nc2nnc(COC)o2)cc1
 : · | 0.8
> O=C(O)c1[nH]nc2c1COc1ccccc1-2
 : i | -1.9
> Cn1ncc2c(Nc3ccccc3Br)ncnc21
 : i | -3.1
> CS(=O)(=O)N(CC(=O)N1CCc2ccccc2C1)c1ccc2c(c1)OCO2
 : i | 0.2
> CCC(NS(=O)(=O)c1c(C)[nH]c(=O)[nH]c1=O)C12CC3CC(CC(C3)C1)C2 (stereo not given)
 : · | -0.1
> CCOc1ccc2c(c1)sc(=NC(=O)C1CC1)n2C
 : · | -0.4
> CCOC(=O)N1CCC(NC(=O)C2CCCN(C(=O)N3CCOc4ccccc43)C2)CC1 (stereo not given)
 : · | 1.8
> CCCS(=O)(=O)N1CCC(C(=O)NCCN(C)Cc2ccccc2)CC1
 : · | -0.3
> Cn1nnc2c(sc3nc(N4CCOCC4)c4c(c32)CCCC4)c1=O
 : i | -1.3
> Cc1ccc(NC(=O)Cn2c(C)cc(C)c(C#N)c2=O)c(Cl)c1
 : · | -0.3
> Cc1c(C(=O)NCC2CCCO2)oc2ccc(S(=O)(=O)N3CCCC3)cc12 (stereo not given)
 : · | -1.8
> Cc1csc(NC(=O)Cc2nn(C)c(=O)c3ccccc23)n1
 : · | 0.6
> CCOC(=O)C1CCCN(C(=O)CCNS(=O)(=O)c2ccc3c(c2)CCC(=O)N3)C1 (stereo not given)
 : · | -0.9
> CCOc1ccc(-n2c(=O)[nH]cc(C(=O)N3CCc4ccccc43)c2=O)cc1
 : · | -2.4
> CCOC(=O)N1CCC(NC(=O)Cn2cc3c(n2)CCCC3)CC1
 : · | 0.0
> COc1ccc(CN(Cc2cc3cc4c(cc3[nH]c2=O)OCO4)C(=O)NC2CCCCC2)cc1
 : i | -5.2
> CC1(C)CC(=O)C=C(NCc2ccncc2)C1
 : i | -1.7
> COCCN(C(=O)CNC(=O)c1ccco1)C(C(=O)NC1CCCCC1)c1cccc(OC)c1 (stereo not given)
 : i | 1.9
> O=C(NCCN1CCN(Cc2ccccc2)CC1)C1c2ccccc2C(=O)N2CCc3ccccc3C12 (stereo not given)
 : · | 1.1
> COc1ccc(C(NC(C)=O)c2ccc3cccnc3c2O)c(OC)c1 (stereo not given)
 : i | 1.4

Single records, from the list above. Order of screens: VCAM-1 up | Proteasome disasm
CCOC(=O)N1CCC(NC(=O)C2CCCN(C(=O)N3CCOc4ccccc43)C2)CC1 (stereo not given) in the list: · | 1.8
Cn1ncc2c(Nc3ccccc3Br)ncnc21 in the list: i | -3.1
CCOc1ccc2c(c1)sc(=NC(=O)C1CC1)n2C in the list: · | -0.4
O=C(O)c1[nH]nc2c1COc1ccccc1-2 in the list: i | -1.9
Cc1csc(NC(=O)Cc2nn(C)c(=O)c3ccccc23)n1 in the list: · | 0.6

Carrying on.
Structure | VCAM-1 up | Proteasome disasm
CCCC1(C(=O)O)NC(c2ccccc2O)C2C(=O)N(c3cccc(Cl)c3)C(=O)C21 (stereo not given) | · | -1.2
COc1ccc(N2CCN(CCNC(=O)CCCn3c(=O)[nH]c4cc(Cl)ccc4c3=O)CC2)cc1 | · | 0.7
CCCc1cc(C(=O)NCC(C)C)no1 | · | 1.5
O=C1CCC(Cc2ccccc2)N1 (stereo not given) | · | 0.7
COc1ccc(OC)c(S(=O)(=O)N2CCN(C34CC5CC(CC(C5)C3)C4)CC2)c1 | · | 1.6
CCOC(=O)C1CCCN(C/C(O)=C(\C#N)c2nc(-c3ccc(Cl)cc3)cs2)C1 (stereo not given) | i | 10
Cc1ccc2c(c1)N(CCCC(=O)NCC1COc3ccccc3O1)C(=O)CO2 (stereo not given) | · | -0.1
Cn1c(=O)cc(SCC(=O)N2CCN(Cc3ccc4c(c3)OCO4)CC2)c2ccccc21 | · | -0.5
CO[C@H]1C[C@@H]2CC[C@@H](C)[C@@](O)(O2)C(=O)C(=O)N2CCCC[C@H]2C(=O)O[C@H]([C@H](C)C[C@@H]2CC[C@@H](O)[C@H](OC)C2)CC(=O)[C@H](C)C=C(C)[C@@H](O)[C@@H](OC)C(=O)[C@H](C)C[C@H](C)C=CC=CC=C1C | i | 0.7
CC1(C)CC(NC(=O)C(F)(F)F)CC(C)(C)N1OC(=O)c1ccco1 | · | 0.5
O=[n+]1c2c(n([O-])c3cc(F)ccc31)CCCC2 | · | 1.4
Cn1c(C(=O)NCCC2=CCCCC2)cc2c(=O)n3ccccc3nc21 | i | 0.2
Cc1cccc(N2C(=O)CC(N(C(=O)c3ccco3)c3cccc(C)c3)C2=O)c1 (stereo not given) | i | 0.8
Cc1c(C)c2ccc(OC3CCCCC3=O)cc2oc1=O (stereo not given) | i | 1.9
Cc1noc(C)c1S(=O)(=O)N1CCCC(C(=O)Nc2ccc(Cl)cn2)C1 (stereo not given) | · | -0.4

Structure | VCAM-1 up | Proteasome disasm
COc1ccc(NC(=O)Nc2ccc(N3CCCC3=O)cc2)cc1OC | i | 6.2
O=C(CSc1nc2[nH]ncc2c(=O)n1-c1ccccc1Br)NCc1ccco1 | i | -3.2
CCOc1ccc(NS(=O)(=O)c2ccc3[nH]cc(C(=O)NCCOC)c(=O)c3c2)cc1 | · | -2.3
Cc1ccc2c(c1C)NC(C)CC2C (stereo not given) | i | -0.7
Cc1oc2cc(O)ccc2c(=O)c1-c1cnn(-c2ccccc2)c1 | i | -2.4
CCOc1cccc(C(=O)N2CCCCC2c2cccnc2)c1 (stereo not given) | i | -0.8
CCC(C)(C(=O)NC1CCCC1)N(Cc1ccco1)C(=O)c1ccc2c(c1)OCO2 (stereo not given) | · | 0.8
O=C(Cn1cc2c(n1)CCCC2)N1CCCc2ccccc21 | · | 2.4
COc1ccc(-c2cc(C(=O)N3CCc4ccccc4C3)no2)cc1OC | · | -0.9
CCc1ccc(C2N(c3ccc(OC)cc3)C(=O)C3CCCN32)cc1 (stereo not given) | · | -0.5
O=C(CSc1nc2c(c(=O)n1-c1ccc(Cl)cc1)SCC2)NCC1CCCO1 (stereo not given) | · | -0.1
Cc1ccc(-c2nc3cnccn3c2Nc2ccccc2)o1 | · | -1.9
COc1cc2c(cc1OC)C(C(=O)NCc1cccnc1)C(c1cccnc1)N(C)C2=O (stereo not given) | · | -1.4
COc1ccc(CCNC(=O)CC2Nc3ccccc3NC2=O)cc1OC (stereo not given) | · | 2.2
Cc1cc(Nc2ccc(F)c(Cl)c2)n2ncnc2n1 | · | 1.6

Structure | VCAM-1 up | Proteasome disasm
Nc1nc(Cl)nc2c1ncn2[C@@H]1O[C@H](CO)[C@@H](O)[C@H]1O | i | -0.1
CCN(CCNC(=O)CN1CCN(Cc2ccc(Cl)cc2)C1=O)c1ccccc1 | · | 3.8
COc1ccc2nc(NC(=O)C3CCCN(S(=O)(=O)c4c(C)noc4C)C3)sc2c1 (stereo not given) | · | -3.6
COc1ccc(OC)c(Nc2ncnc3c2cnn3-c2ccccc2)c1 | i | -0.7
CC(C)Cc1cc(C(=O)Nc2sc3c(c2C#N)CCCC3)no1 | · | 1.3
Cc1ccc(C)c(-n2c(N)c(C(N)=O)sc2=S)c1 | · | -0.4
CCn1cc(CNC(=O)C2C3CCC(C3)C2C(=O)O)cn1 (stereo not given) | · | -1.8
CCCC(=O)NCCc1cc2c(C)ccc(C)c2[nH]c1=O | i | -0.2

Given field by field: part of the list above
CCCC(=O)NCCc1cc2c(C)ccc(C)c2[nH]c1=O
  VCAM-1 up: i
  Proteasome disasm: -0.2
CC(C)Cc1cc(C(=O)Nc2sc3c(c2C#N)CCCC3)no1
  VCAM-1 up: ·
  Proteasome disasm: 1.3

Given field by field: part of the list above.
COc1ccc(CN(Cc2cc3cc4c(cc3[nH]c2=O)OCO4)C(=O)NC2CCCCC2)cc1
  VCAM-1 up: i
  Proteasome disasm: -5.2

CC1(C)CC(=O)C=C(NCc2ccncc2)C1
  VCAM-1 up: i
  Proteasome disasm: -1.7

Assay outcomes as filed in PubChem.
